Cdc42 wt GTP – human Cdc42 wildtype GTP binding change, either direction | hit rate 0.2% among 190,000 | AID 761 | percent activity (GTP binding), % at 10 µM | GST-Cdc42 beads, Bodipy-GTP binding, flow cytometry; actives lie on both sides;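 active = percent activity GTP binding at least 20 points away from the 100% baseline, either down as inhibitor or up as activator; inconclusive = compound flagged as likely green fluorescent from well-wide comparison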;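 note: median bead fluorescence of bound Bodipy-FL-GTP at 100 nM; 0% = excess unlabeled GTP control and 100% = no compound control; below 100% means less GTP binding so inhibitor and above means activator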
Target sequence (P60953 whole entry, looked up): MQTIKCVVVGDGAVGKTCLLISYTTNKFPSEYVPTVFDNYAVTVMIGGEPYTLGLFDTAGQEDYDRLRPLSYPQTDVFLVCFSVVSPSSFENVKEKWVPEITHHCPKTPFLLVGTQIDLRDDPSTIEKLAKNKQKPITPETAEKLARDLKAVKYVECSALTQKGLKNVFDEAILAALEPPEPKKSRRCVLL
Rab7 wt modul – dog Rab7 wildtype GTP binding, inhibitors and activators; AID 758; hit rate 0.055% among 190,000; GTP binding activity (percent of control), % at 10 µM; GST-Rab7 beads, fluorescent GTP binding, flow cytometry; actives lie on both sides; untreated = 100%, excess cold GTP = 0%;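 active = fluorescent GTP binding to Rab7 beads changed by at least 20 points from the 100% baseline, either direction, mostly lower; inconclusive = compound itself probably fluorescent, or too few beads counted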;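 note: median green fluorescence of bound Bodipy-FL-GTP per Rab7 bead population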
Rab2A wt mod – changes GTP binding to wildtype dog Rab2A, up or down; P61105; GST-Rab2 wt beads, Bodipy-GTP binding, flow cytometry; GTP binding activity, % at 10 µM; hit rate 0.19% among 190,000; AID 760;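 active = GTP binding activity at least 20 points away from 100%, either lowered or raised; inconclusive = signal likely due to the compound's own green fluorescence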;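 note: 0% = beads with excess unlabeled GTP and 100% = no-compound control corrected for plate trend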
Rac1 mut GTP – modulators of GTP binding to human Rac1 activated mutant; AID 764; hit rate 0.11% among 190,000; GST-Rac1 activated beads, fluorescent GTP binding, flow cytometry; actives lie on both sides; 100% means binding = to untreated wells; percent activity (GTP binding), % at 10 µM;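 active = GTP binding at least 20 percentage points away from the 100% baseline, in either direction, so actives lie on both sides; inconclusive = Compound likely fluorescent itself, or too few beads counted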
HRas wt GTP bind – changes GTP binding to wildtype human HRas | GST-Ras wt beads, Bodipy-FL-GTP binding, flow cytometry; actives lie on both sides | GTP binding activity, % at 10 µM | hit rate 0.14% among 190,000;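 active = GTP binding activity at least 20% away from the 100% baseline, either lowered as inhibitor or raised as activator; inconclusive = flagged as likely green fluorescent, judged across all proteins in the well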;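 note: 0% = unlabeled GTP competition control and 100% = no-compound control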
Target sequence (P01112 whole entry, looked up): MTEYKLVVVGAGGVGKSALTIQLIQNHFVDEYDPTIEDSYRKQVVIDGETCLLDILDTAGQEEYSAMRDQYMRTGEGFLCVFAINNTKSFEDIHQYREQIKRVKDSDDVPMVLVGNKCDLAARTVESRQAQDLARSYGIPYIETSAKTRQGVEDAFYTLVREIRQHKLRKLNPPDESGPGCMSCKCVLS
Rac1 wt GTP bind – modulators of human Rac1 wildtype GTP binding. P63000. GST-Rac1 beads, fluorescent GTP binding, flow cytometry; actives lie on both sides; 0 = cold GTP competed, 100 = untreated. GTP binding activity (% of control), % at 10 µM. hit rate 0.27% among 190,000. AID 757;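 active = GTP binding activity at least 20 points away from the 100% control level, either lower or higher; inconclusive = compound flagged as likely green fluorescent, judged across all proteins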
Avidin bead fluor – compound fluoresces at 488/530 nm on avidin beads | fluorescence (KMESF) at 10 µM | compound fluorescence 488/530 nm, flow cytometry; stronger effect = higher value | hit rate 0.38% among 220,000; in the data active = fluorescence above about 47; note: inactives centre near 10
Numbers without * were called inactive; ? = inconclusive; nt = not tested or not shown; & = joins results of further samples.

| Rac1 mut GTP | Rab2A wt mod | Rac1 wt GTP bind | Avidin bead fluor | Rab7 wt modul | Cdc42 wt GTP | HRas wt GTP bind | molecule |
| --- | --- | --- | --- | --- | --- | --- | --- |
| nt | nt | nt | 8 | nt | nt | nt | NS(=O)(=O)c1ccc(NC(=O)Nc2ccccc2)cc1 |
| 95.0 | 96.0 | 99.0 | nt | 101.0 | 97.0 | 97.0 | COc1ccc([C@@H]2Sc3ccccc3N(CCN(C)C)C(=O)[C@@H]2OC(C)=O)cc1 |
| 88.0 | 83.0 | 78.0* | 8 | 93.0 | 82.0 | 83.0 | COc1cc(-c2cc(=O)c3c(O)cc(O)cc3o2)ccc1O |
| nt | nt | nt | 6 | nt | nt | nt | O=C(O)COCCN1CCN([C@H](c2ccccc2)c2ccc(Cl)cc2)CC1 |
| 76.0* | 81.0 | 75.0* | 11 | 86.0 | 79.0* | 83.0 | N#Cc1c(-c2cccc(Br)c2)cc(-c2ccco2)[nH]c1=O |
| 101.0 | 100.0 | 106.0 | 5 | 99.0 | 103.0 | 103.0 | Cc1nn(CC(=O)O)c(C)c1Cl |
| 99.0 | 98.0 | 101.0 | 11 | 96.0 | 98.0 | 99.0 | COC(=O)C1=C(C)NC(C)=C(C(=O)OCCN(C)Cc2ccccc2)C1c1cccc([N+](=O)[O-])c1 (centres undefined) |
| 103.0 | 100.0 | 103.0 | 7 | 97.0 | 108.0 | 102.0 | O=C(O)C[C@@H](O)C(=O)O |
| 97.0&97.0 | 98.0&97.0 | 99.0&105.0 | 11&11 | 99.0&97.0 | 96.0&101.0 | 97.0&98.0 | CC1(C)S[C@@H]2[C@H](NC(=O)[C@H](N)c3ccccc3)C(=O)N2[C@H]1C(=O)O |
| 99.0 | 101.0 | 106.0 | nt | 101.0 | 103.0 | 100.0 | CCCCNC(=O)NS(=O)(=O)c1ccc(C)cc1 |
| ? | ? | ? | 6&13 | ? | ? | ? | Clc1ccc2c(c1)CCc1cccnc1C2=C1CCNCC1 |

9 compounds from above, arranged by SMILES length, smallest number first.
| Rac1 mut GTP | Rab2A wt mod | Rac1 wt GTP bind | Avidin bead fluor | Rab7 wt modul | Cdc42 wt GTP | HRas wt GTP bind | molecule |
| --- | --- | --- | --- | --- | --- | --- | --- |
| 101.0 | 100.0 | 106.0 | 5 | 99.0 | 103.0 | 103.0 | Cc1nn(CC(=O)O)c(C)c1Cl |
| 99.0 | 101.0 | 106.0 | nt | 101.0 | 103.0 | 100.0 | CCCCNC(=O)NS(=O)(=O)c1ccc(C)cc1 |
| ? | ? | ? | 6&13 | ? | ? | ? | Clc1ccc2c(c1)CCc1cccnc1C2=C1CCNCC1 |
| nt | nt | nt | 8 | nt | nt | nt | NS(=O)(=O)c1ccc(NC(=O)Nc2ccccc2)cc1 |
| 88.0 | 83.0 | 78.0* | 8 | 93.0 | 82.0 | 83.0 | COc1cc(-c2cc(=O)c3c(O)cc(O)cc3o2)ccc1O |
| nt | nt | nt | 6 | nt | nt | nt | O=C(O)COCCN1CCN([C@H](c2ccccc2)c2ccc(Cl)cc2)CC1 |
| 95.0 | 96.0 | 99.0 | nt | 101.0 | 97.0 | 97.0 | COc1ccc([C@@H]2Sc3ccccc3N(CCN(C)C)C(=O)[C@@H]2OC(C)=O)cc1 |
| 97.0&97.0 | 98.0&97.0 | 99.0&105.0 | 11&11 | 99.0&97.0 | 96.0&101.0 | 97.0&98.0 | CC1(C)S[C@@H]2[C@H](NC(=O)[C@H](N)c3ccccc3)C(=O)N2[C@H]1C(=O)O |
| 99.0 | 98.0 | 101.0 | 11 | 96.0 | 98.0 | 99.0 | COC(=O)C1=C(C)NC(C)=C(C(=O)OCCN(C)Cc2ccccc2)C1c1cccc([N+](=O)[O-])c1 (centres undefined) |

2 entries from above, as labelled records.
> CCCCNC(=O)NS(=O)(=O)c1ccc(C)cc1
  Rac1 mut GTP = 99.0
  Rab2A wt mod = 101.0
  Rac1 wt GTP bind = 106.0
  Avidin bead fluor = nt
  Rab7 wt modul = 101.0
  Cdc42 wt GTP = 103.0
  HRas wt GTP bind = 100.0
> Clc1ccc2c(c1)CCc1cccnc1C2=C1CCNCC1
  Rac1 mut GTP = ?
  Rab2A wt mod = ?
  Rac1 wt GTP bind = ?
  Avidin bead fluor = 6&13
  Rab7 wt modul = ?
  Cdc42 wt GTP = ?
  HRas wt GTP bind = ?

From PubChem BioAssay

These rows are one share of the data; the hit share may differ from the screen's.
